Screening data (PubChem)
Rango dissoc inh – inhibition of RanGTP-driven Rango-importin beta dissociation; O95149+P62826; Biochemical FRET Rango-importin beta, RanGTP-induced dissociation; Potency, µM (series often up to 46.1 µM), for inactives: top-dose activity change, negative = inhibition; hit rate 0.071% among 340,000; active means falling FRET ratio curve, often poorly fitted, with flat reads before Ran was added; inconclusive means other falling curves, or compound fluorescence or quenching; inactive means flat or rising ratio curve;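 further: potency means the concentration at half of the fitted maximal effect; % of control where 0% means no effect; nearly all actives have a fitted effect of over 45% in size; -100% = wells without RanGTP and RCC1; the record marks most hits as doubtful in a second field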
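Recombinant Rango FRET biosensor (EYFP–snurportin 1 IBB–cerulean CFP10) at 0.1 uM premixed with 0.25 uM importin beta in PBS, 1 mM DTT, 0.02% Tween-20, 0.1% BSA. Compound added 5 min; RanGTP-RCC1 (0.6 uM Ran, 2 mM GTP, 0.2 uM RCC1) then triggers release, read at 45 min.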
GLA inh pH 4.5 – alpha-galactosidase A (human) inhibition, pH 4.5; purified enzyme, 4-MU-alpha-Gal fluorescence, pH 4.5; activity change, negative = inhibition, % at 105 µM; 230,000 tested, under 10 active; AID 1467; inconclusive = small, poorly fitted or top-dose-only inhibition, or a rising curve; inactive = flat fitted curve, though single readings scatter; no compound was filed as active;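 further: 0% = full activity with enzyme and -100% = basal without enzyme; dose as in the result columns while the protocol names 77 µM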
miR-21 reporter – miR-21 reporter, rising signal; 340,000 tested, under 10 active; HeLa miR-21 FLuc reporter, luciferase, 48 h; Potency, µM (top dose mostly 38.3 µM), for the others: top-dose reporter change, positive = more light; active = well fitted rising curve with a large enough effect; inconclusive = small, poorly fitted or top-dose-only effect; inactive = no such curve, though single readings can be large or run the other way;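 further: % of control where 0% means no effect; miR-21 action dims this reporter so a rising signal means less miR-21 action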
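Compounds were titrated across several concentrations (up to approximately 40 uM) and incubated 48 hours with HeLa miR-21-FLuc reporter cells (miR-21 target sequence downstream of FLuc, endogenous miR-21). Readout was firefly luciferase luminescence after lytic detection reagent.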
Rango complex inh – prevents formation of the Rango-importin beta complex; Q14974; Rango CFP/YFP FRET sensor + importin beta, 45 min; Potency, µM (highest dose often 92.2 µM), for inactives: at the top dose inhibition of complex formation; hit rate 0.031% among 340,000; active = rising FRET ratio curve, often small or poorly fitted; inconclusive = mostly compound fluorescence or quenching in the first reads; inactive = flat curves in all reads;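 further: potency means the concentration at half of the fitted maximal effect; 0% = DMSO wells and 100% = buffer wells lacking importin beta; nearly all actives have a fitted effect of over 15% in size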
Target sequence (Q14974 whole entry, looked up): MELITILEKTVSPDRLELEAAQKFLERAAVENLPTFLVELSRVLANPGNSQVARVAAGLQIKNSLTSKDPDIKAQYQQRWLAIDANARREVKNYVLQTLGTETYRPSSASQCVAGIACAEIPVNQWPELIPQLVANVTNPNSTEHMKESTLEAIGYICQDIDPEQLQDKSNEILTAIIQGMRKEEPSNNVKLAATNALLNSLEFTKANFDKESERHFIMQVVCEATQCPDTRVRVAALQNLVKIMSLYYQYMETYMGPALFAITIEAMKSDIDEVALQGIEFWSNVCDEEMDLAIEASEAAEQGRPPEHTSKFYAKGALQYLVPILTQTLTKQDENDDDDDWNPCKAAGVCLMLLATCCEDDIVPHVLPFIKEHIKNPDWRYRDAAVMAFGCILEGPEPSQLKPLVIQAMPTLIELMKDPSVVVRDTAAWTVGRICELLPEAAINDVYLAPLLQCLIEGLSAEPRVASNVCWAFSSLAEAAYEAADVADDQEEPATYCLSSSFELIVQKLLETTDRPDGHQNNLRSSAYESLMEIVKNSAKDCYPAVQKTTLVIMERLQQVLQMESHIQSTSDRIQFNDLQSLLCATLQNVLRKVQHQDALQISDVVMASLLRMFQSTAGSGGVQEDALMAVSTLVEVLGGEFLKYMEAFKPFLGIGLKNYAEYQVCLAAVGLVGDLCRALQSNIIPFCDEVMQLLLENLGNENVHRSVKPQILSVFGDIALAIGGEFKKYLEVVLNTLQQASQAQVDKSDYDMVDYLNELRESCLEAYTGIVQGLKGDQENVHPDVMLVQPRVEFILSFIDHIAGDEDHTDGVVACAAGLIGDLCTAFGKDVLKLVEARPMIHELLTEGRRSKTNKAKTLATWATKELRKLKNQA
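FRET biosensor (snurportin 1 IBB flanked by EYFP and cerulean), 50 nM, with compound 5 min, then 0.125 microM importin beta in PBS, 1 mM DTT, 0.02% Tween-20, 0.1% BSA. CFP/YFP ratio read after 45 min at room temperature; pre-read flags interference.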
Numbers without * were called inactive; ? = inconclusive; · = not tested or not shown; [ ] = remark or other dose. The list is partial; rates above refer to the full screens.

Value order – Rango dissoc inh	GLA inh pH 4.5	miR-21 reporter	Rango complex inh
1: Cc1ccc(-c2nn(-c3ccccc3)cc2C2CC(c3cccs3)=NN2C(=O)CCCC(=O)O)cc1 (stereo not drawn)
 : -6%	-1	-6%	0.6%
2: COc1ccc(N2CCN(C(=O)CN(C)S(=O)(=O)c3ccc4c(c3)c(=O)n(C)c(=O)n4C)CC2)cc1
 : -13%	-1	0%	7.7%
3: O=[N+]([O-])c1ccc(N2CCN(c3ccccc3)CC2)cc1
 : -4%	·	-5%	-1.3%
4: C=CCn1c(SCC(=O)NC2CC2)nnc1-c1cccs1
 : -10%	·	-3%	0.8%
5: COc1ccc(CCOC(=O)c2cccc(NC(C)=O)c2)cc1
 : -2%	·	-9%	-0.3%
6: O=C(N/N=C/c1cc(Cl)ccc1O)c1ccc(Br)cc1
 : ?	-5	10%	?
7: COc1ccc(Cc2nnc(NS(=O)(=O)Cc3ccccc3)s2)cc1
 : 1%	-21	-8%	-1.8%
8: NC(=O)c1c(NC(=O)CCCn2cnc([N+](=O)[O-])n2)sc2c1CCCC2
 : 5%	-1	-3%	-0.1%
9: CN(C)S(=O)(=O)c1ccc(Cl)c(C(=O)NC2CCN(Cc3ccccc3)C2)c1 (stereo not drawn)
 : -1%	·	-1%	6.1%
10: Cc1c(NC(=O)c2cc(-c3ccc4c(c3)OCO4)on2)c(=O)n(-c2ccccc2)n1C
 : 3%	1	-4%	2.4%
11: Nc1nc(C(F)(F)F)cc(=O)[nH]1
 : 2%	0	0%	3.1%
12: O=C(CSc1nnc(COc2ccccc2Cl)o1)Nc1ccccc1
 : -10%	·	·	-5.1%
13: O=C(Nc1ccccc1)c1nc[nH]c1C(=O)NCCNC(=O)c1[nH]cnc1C(=O)Nc1ccccc1
 : 3%	·	·	-1.4%
14: Cc1ccc(S(=O)(=O)N2CCN(C(=O)CCn3nc(C)c(C)c3C)CC2)cc1
 : 1%	·	5%	3.8%
15: Cc1ccc(O)c(CCc2ccc(O)cc2)n1
 : -23%	-1	-7%	8.0%
16: CC(=O)c1ccc(NC(=O)COC(=O)CC2CC3CCC2C3)cc1 (stereo not drawn)
 : -2%	·	·	-0.7%
17: O=[N+]([O-])c1ccc(Cl)c2cccnc12
 : 7%	7	4%	-0.4%
18: Cc1cccc(NS(=O)(=O)c2cccc3cccnc23)n1
 : 53%	-1	0%	-0.4%
19: COC(CNS(=O)(=O)c1cccc2nonc12)OC
 : -10%	-18[21.1 µM]	1%	?

Rewritten as tab-separated lines: 13 of the compounds above
no.	mol	Rango dissoc inh	GLA inh pH 4.5	miR-21 reporter	Rango complex inh
4	C=CCn1c(SCC(=O)NC2CC2)nnc1-c1cccs1	-10%	·	-3%	0.8%
5	COc1ccc(CCOC(=O)c2cccc(NC(C)=O)c2)cc1	-2%	·	-9%	-0.3%
6	O=C(N/N=C/c1cc(Cl)ccc1O)c1ccc(Br)cc1	?	-5	10%	?
7	COc1ccc(Cc2nnc(NS(=O)(=O)Cc3ccccc3)s2)cc1	1%	-21	-8%	-1.8%
8	NC(=O)c1c(NC(=O)CCCn2cnc([N+](=O)[O-])n2)sc2c1CCCC2	5%	-1	-3%	-0.1%
9	CN(C)S(=O)(=O)c1ccc(Cl)c(C(=O)NC2CCN(Cc3ccccc3)C2)c1 (stereo not drawn)	-1%	·	-1%	6.1%
10	Cc1c(NC(=O)c2cc(-c3ccc4c(c3)OCO4)on2)c(=O)n(-c2ccccc2)n1C	3%	1	-4%	2.4%
11	Nc1nc(C(F)(F)F)cc(=O)[nH]1	2%	0	0%	3.1%
12	O=C(CSc1nnc(COc2ccccc2Cl)o1)Nc1ccccc1	-10%	·	·	-5.1%
13	O=C(Nc1ccccc1)c1nc[nH]c1C(=O)NCCNC(=O)c1[nH]cnc1C(=O)Nc1ccccc1	3%	·	·	-1.4%
14	Cc1ccc(S(=O)(=O)N2CCN(C(=O)CCn3nc(C)c(C)c3C)CC2)cc1	1%	·	5%	3.8%
15	Cc1ccc(O)c(CCc2ccc(O)cc2)n1	-23%	-1	-7%	8.0%
16	CC(=O)c1ccc(NC(=O)COC(=O)CC2CC3CCC2C3)cc1 (stereo not drawn)	-2%	·	·	-0.7%
